TRPML1 agonist: activates the human TRPML1 channel | Q9GZU1 | TRPML1-expressing cells, Ca2+ dye fluorescence, FDSS; host cell line not named in the record; reference of the full effect not given here | activation, % (test concentration not listed) | 410,000 compounds, 0.12% hits; in the data active = activation above about 50%; inconclusive = about 30% to 50%; inactive = below about 30%; also: 0% is about no effect; the text of the record puts the active cut at 80%
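Kinetic FDSS Ca2+ read in Tet-induced TRPML1-DL cells (ABD Ca8 dye plus quencher, 45-90 min RT loading): baseline, then compound, then 110 s agonist window; EC80 agonist 54-4 at 4uM final added afterwards for a 110 s antagonist window.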
Menin MLL FP FL: displaces fluorescein MLL peptide from human menin. 290,000 tested, under 10 active. FP activity change, % at 61.4 µM. Fluorescence polarization, fluorescein-MLL peptide displacement from menin; inconclusive = falling polarisation curve, or a change in total fluorescence; inactive = total fluorescence flat and polarisation flat or rising; no compound was filed as active; the % refers to the polarisation; negative = inhibition;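 also: % of control where 0% means no effect; inhibitors lower the polarisation; unlabelled MLL peptide was the positive control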
Sfp PPTase inh: inhibitors of Bacillus subtilis Sfp phosphopantetheinyl transferase; Potency, µM, for inactives: max response, negative = inhibition, hits mostly inhibitors; AID 1490; Biochemical Sfp PPTase activity, qHTS; Q9F4F7; 310,000 compounds, 3.5% hits; active = well fitted inhibition curve with a large enough effect; inconclusive = small, poorly fitted or top-dose-only effect, or another doubt; inactive = no such curve, though single readings can be large or run the other way;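 also: the enzyme is Sfp with the accession as filed and its product quenches rhodamine fluorescence; potency is read from the fitted curve at half-maximal effect; 0% = enzyme reaction without inhibitor and -100% = no enzyme wells; top concentration of the series not given in the record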
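Fluorescence-quenching assay with 15 nM Sfp, 5 uM rhodamine-CoA and 12.5 uM BHQ-2-labelled ybbR peptide in pH 7.6 Hepes/MgCl2 buffer. Enzyme was pre-incubated with compound for 15 min at room temperature. Rate was taken from the 30-min fluorescence change (525/598 nm).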
TRPV1 potentiator: human TRPV1 potentiation. AID 540277. 320,000 compounds, 0.02% hits. potentiation, % at 8.33 µM. TRPV1-expressing cells, Fluo-8 calcium influx, capsaicin EC20 potentiation; host cell line not named in the record; control for the full effect not named in the record. Q8NER1; active means potentiation above 80%; inconclusive means 30% to 80%; inactive means below 30%; also: 0% is about no effect
Target sequence (Q8NER1 whole entry, looked up): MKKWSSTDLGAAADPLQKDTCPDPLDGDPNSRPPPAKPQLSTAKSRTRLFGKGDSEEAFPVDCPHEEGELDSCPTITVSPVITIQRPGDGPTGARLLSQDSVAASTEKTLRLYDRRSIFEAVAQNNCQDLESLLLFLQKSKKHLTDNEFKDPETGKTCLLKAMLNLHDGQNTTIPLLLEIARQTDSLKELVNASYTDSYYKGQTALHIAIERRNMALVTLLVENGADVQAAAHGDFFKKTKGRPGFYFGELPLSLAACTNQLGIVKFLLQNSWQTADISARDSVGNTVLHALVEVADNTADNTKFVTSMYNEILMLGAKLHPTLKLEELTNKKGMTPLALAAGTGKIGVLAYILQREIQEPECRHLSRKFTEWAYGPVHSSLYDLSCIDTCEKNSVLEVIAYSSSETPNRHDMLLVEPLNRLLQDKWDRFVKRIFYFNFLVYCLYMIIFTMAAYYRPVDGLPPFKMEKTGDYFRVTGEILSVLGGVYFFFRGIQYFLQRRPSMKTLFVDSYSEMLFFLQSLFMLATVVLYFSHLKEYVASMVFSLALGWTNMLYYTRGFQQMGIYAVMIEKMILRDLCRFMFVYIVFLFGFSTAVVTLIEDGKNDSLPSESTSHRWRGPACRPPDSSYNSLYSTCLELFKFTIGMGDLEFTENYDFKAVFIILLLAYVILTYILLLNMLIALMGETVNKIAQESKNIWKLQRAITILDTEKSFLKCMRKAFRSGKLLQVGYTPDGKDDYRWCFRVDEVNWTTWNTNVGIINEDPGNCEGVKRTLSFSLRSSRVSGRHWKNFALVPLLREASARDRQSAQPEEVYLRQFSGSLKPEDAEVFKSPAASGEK
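Fluo-8 calcium influx in TRPV1-expressing cells, kinetic read (ex 480/em 520 nm). Compound added and read 3 min for agonist activity, followed by capsaicin at EC20 final and 2 min further read for enhancement.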
TRPML1 inh: blocks the human TRPML1 channel; Q9GZU1; TRPML1-inducible cells, Ca2+ dye fluorescence, FDSS; stronger effect = lower value; inhibition of EC80 agonist-evoked calcium signal; activity change, negative = inhibition, % (test concentration not listed); 390,000 compounds, 0.02% hits; AID 624415; in the data active means activity change below about -50%; inconclusive means about -30% to -50%; inactive means above about -30%;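 also: stimulus is agonist 54-4 at its EC80 concentration; % is scaled to controls: 0 for no effect and ±100 for the full control effect; compound concentration not given in the record; the text of the record puts the active cut at -80%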
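Calcium fluorescence in TRPML1-DL cells induced overnight with Tet: a 110 s read after compound pin addition, then a 110 s antagonist read after challenge with 54-4 at 4 uM final (EC80).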
PINK1 expr mod: changes PINK1 expression; PINK1 immunofluorescence, high-content cytometry, 24 h; Potency, µM (titrated, usually from 76.6 µM), for inactives: top-dose activation (PINK1 increase), most hits filed as activators; 410,000 compounds, 0.2% hits; AID 624263; active = well fitted activation curve with a large enough effect; inconclusive = small, poorly fitted or top-dose-only effect; inactive = flat fitted curve, though single readings scatter; cell line not stated here;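 also: potency is read from the fitted curve at half-maximal effect; % of control where 0% means no effect; nearly all actives have a fitted effect of over 65% in size; a mitochondrial uncoupler was the plate control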
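Compound titrations (5 concentrations, 24 h) on a stable cell line; DMSO and CCCP controls. Endpoint: fixed-cell PINK1 immunofluorescence with mitochondrial, cell and nuclear markers, scanned by microplate cytometer.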
ClpP mod: qHTS Assay for Activators of ClpP. 340,000 compounds, 1.9% hits. ATP-dependent Clp protease proteolytic subunit (Bacillus subtilis (strain 168)), P80244. Potency, µM (series often up to 57.5 µM), without a hit: at the top dose activity change, negative = active. AID 651965, 2013. purified B. subtilis ClpP, FRET peptide cleavage, 20 min; active = well fitted falling curve with a large enough effect; inconclusive = small, poorly fitted or top-dose-only effect; inactive = no such curve, though single readings can be large or run the other way; also: potency is read from the fitted curve at half-maximal effect; the source files actives as falling curves though it sought activators and does not explain the sign; nearly all actives have a fitted effect of over 65% in size; many hits overshoot -100%
Target sequence (P80244 whole entry, looked up): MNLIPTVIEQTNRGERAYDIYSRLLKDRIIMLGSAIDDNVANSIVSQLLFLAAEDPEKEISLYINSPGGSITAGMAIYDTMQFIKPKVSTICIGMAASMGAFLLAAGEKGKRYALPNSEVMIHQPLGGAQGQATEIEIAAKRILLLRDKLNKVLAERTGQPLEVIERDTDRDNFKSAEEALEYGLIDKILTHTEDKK
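ClpP 10 microg/mL final, pH 8 Tris/KCl buffer with BSA, glycerol, Tween-20; compound pinned in; FRET-FV substrate; RT 20 min; Ex320/Em430; ΔFRET vs ADEP 5.8 microM, DMSO, no enzyme.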
The depositor's hits bear a star; ? = inconclusive; . = no result given; [ ] = another dose, or the depositor's remark. Rows are unselected. Share with any hit: about 4.4%.

SMILES	TRPML1 agonist	Menin MLL FP FL	Sfp PPTase inh	TRPV1 potentiator	TRPML1 inh	PINK1 expr mod	ClpP mod
CC(=O)c1ccc(NC(=O)c2ccc3c(c2)N(Cc2cccc(Cl)c2)C(=O)c2ccccc2S3(=O)=O)cc1	4.5	.	.	.	5	1.0%	-25%
CCC1CCCCN1CCCNC(=O)c1ccc2nc(N3CCC(C)CC3)sc2c1 (stereo not given)	-0.4	-3.6	4%	-9	-6	-2.0%	4.2%
CC(=O)NC(CC(=O)O)c1ccc([N+](=O)[O-])cc1 (stereo not given)	0.9	4.6	12%	.	-4	-1.0%	.
CCOC(=O)Cn1c(=O)oc2cc(S(=O)(=O)N3CCC(C(=O)OCC)CC3)ccc21	0.0	.	.	.	-7	0.1%	0.7%
OC(COCc1ccc(Cl)cc1)CN1CCN(CC(O)COCc2ccc(Cl)cc2)CC1 (stereo not given)	0.0	1.0	0%	0	-9	-2.0%	0.5%
COc1cc(/C=C/C(=O)OCC(=O)c2c[nH]c3ccccc23)ccc1OC(F)F	2.8	1.0	23%	28	3	0.6%	-5.9%
COc1ccc(OCCC(=O)Nc2cc3c(cc2C(=O)O)OCCCO3)cc1	-0.2	.	.	25	-10	0.7%	-28%
CC(C)OCCCNC(=S)NNC(=O)c1ccc(Cl)c(Cl)c1	0.3	-4.2	16%	?	-3	0.4%	2.3%
COc1ccc(-c2cc3ncnc(Cl)c3s2)cc1	1.4	20	-15%	13	18	0.6%	3.9%
Cc1ccccc1NS(=O)(=O)c1ccc(C)c(C(=O)N2CCOCC2)c1	0.2	-0.4	17%	1	16	3.1%	-3.2%
COc1ccc(S(=O)(=O)Nc2ccc3c(c2)C(=O)N([C@@H](C)CO)C[C@@H](C)[C@H](CN(C)C(=O)CCCN(C)C)OCCCC[C@H](C)O3)cc1	-0.7	.	.	.	3	0.3%	-1.1%
COc1cccc(N(C(=O)c2csnn2)C(C(=O)NC2CCCC2)c2ccccc2)c1 (stereo not given)	1.7	.	16%	-5	0	1.0%	-1.6%
COc1ccc(-c2nc(CSCC(=O)N3CCN(C4CCCCC4)CC3)c(C)o2)cc1OC	0.4	.	.	.	-21	-3.6%	4.4%
COC(=O)c1c(C)oc2ccc(OC(=O)c3cccs3)cc12	2.4	0.0	?	2	11	0.6%	0.1%
Cn1cccc1C(=O)N1CCC[C@@]2(CCN(c3ccncc3)C2)C1	.	-3.0	-8%	.	.	-0.9%	.
Cc1ccc(-c2nnc(SCC(=O)Nc3ccc4c(c3)oc3ccccc34)n2C)c(Cl)c1	-0.7	3.1	5%	6	-14	?	1.4%
Cc1cc(C(=O)N(C)CC2CCCN(CCc3ccc(F)cc3)C2)c(C)o1 (stereo not given)	0.0	2.6	16%	0	4	0.1%	-2.1%
CC(=O)NC1=CC(=C[N+](=O)[O-])C=C1O	0.5	.	.	.	-8	-5.4%	-4.1%
CCN(Cc1ccccc1)c1ccc(/C=N/N=C(N)N)cc1	-0.6	-0.8	?	-7	-5	-1.5%	25µM*
CCn1c(SCC(=O)c2ccc3c(c2)OCCO3)nnc1C(C)C	0.0	1.2	?	0	-1	1.0%	0.4%
CCNS(=O)(=O)c1ccc(NC(=O)CSc2nc(-c3ccco3)cc(C(F)(F)F)n2)cc1	0.8	.	.	.	-13	2.8%	38%
COc1ccc2c(c1)CCc1c(C(=O)NCCN3CCOCC3)noc1-2	1.2	0.6	9%	1	-10	-1.1%[38.3 µM]	-0.1%
CCN1CCN(CC(=O)Nc2ccc(OC(F)(F)F)cc2)CC1	-0.4	1.8	?	13	8	-0.6%	-2.0%
CC1CCCC(NC(=O)COC(=O)COc2ccccc2Cl)C1C (stereo not given)	-0.1	-0.8	12%	3	-4	1.4%	.
COc1ccc(S(=O)(=O)Nc2cc3c(C(C)=O)c(C)oc3c3ccccc23)cc1	62*	-1.3	45µM*	-7	-14	1.8%	1.4%
COc1ccccc1CNc1cc(-c2cccnc2)ncn1	.	-2.3	-15%	.	.	1.0%	.
Cc1noc(C)c1NC(=O)N(C)C[C@@H]1Oc2ccc(NC(=O)C3CCCCC3)cc2C(=O)N([C@@H](C)CO)C[C@H]1C	-0.5	.	.	.	-1	1.7%	1.1%
CC(C)c1nnc(NC(=O)C2CCCO2)s1 (stereo not given)	0.3	2.4	-3%	-3	19	0.2%	0.8%
Cc1cc(C)nc(N2CCCC(C(=O)NCc3ccccc3)C2)n1 (stereo not given)	1.3	2.0	-10%	-4	4	-1.7%	-8.5%
CCCNC(=S)NCc1ccc(Cl)cc1	-0.8	-0.9	4%	-16	1	2.2%	1.1%
COc1ccc(C(=S)NCS(=O)(=O)c2ccc(C)cc2)cc1	0.7	1.2	?	-5	1	-1.5%	-1.7%
O=C(CCc1nc2sc3c(c2c(=O)[nH]1)CCCC3)NCCc1ccc(F)cc1	0.2	22	2%	2	7	6.3%	-3.0%
COc1ccc(-c2cc(C(F)(F)F)n3nc(C(=O)Nc4ccccc4SC)cc3n2)cc1OC	2.6	.	.	.	12	7.7%	-1.5%
COc1cc2nc(SCc3ccc(F)cc3)n(Cc3cccs3)c(=N)c2cc1OC	-0.2	-1.2	9%	7	8	2.4%	?
C/C(=N\N=C\c1ccccc1)c1nnn(-c2nonc2N)c1C	-0.4	7.7	14%	-11	-14	-0.3%	-2.0%
O=C(Nc1ccccn1)c1ccc2ccccc2c1O	0.6	1.6	7%	1	4	1.9%	-1.6%
COc1cccc(-c2nccc(N(C)Cc3ccco3)n2)c1	.	4.3	?	.	.	1.1%	.
COC(=O)c1sc(OC)cc1OCc1ccc(C)cc1	0.2	1.1	5%	12	3	-0.1%	-9.7%
CCc1ccc(N(CC(=O)Nc2ccccc2C(=O)N2CCOCC2)S(C)(=O)=O)cc1	0.8	0.8	7%	-10	-2	-1.4%	-2.8%
COc1cccc(OCc2nc3c4cnn(-c5ccccc5)c4ncn3n2)c1	-0.5	0.5	-4%	-20	-6	0.4%[38.3 µM]	?
CC(=O)c1ccc(NC(=O)c2cccs2)cc1	-0.4	-3.1	1%	-17	1	.	-0.9%
CC(=O)Nc1ccc(C)cc1-c1nc2ccccc2n(CC(=O)c2ccc(C)c(C)c2)c1=O	0.3	.	.	.	6	-0.1%	-2.8%
COc1ccc(OC)c2[nH]c(=O)c(CCNS(=O)(=O)c3ccccc3)cc12	-1.3	-2.7	2%	10	7	-0.5%	-0.6%
CCN1CCN(C(=O)c2cc3cc(Cl)ccc3[nH]2)CC1	0.5	0.7	3%	-6	14	-2.7%	.
CCOC(=O)c1cccc(NC(=O)c2cc3c(=O)n(Cc4cccnc4)ccc3nc2C)c1	1.6	.	.	.	11	-0.8%	-8.6%
O=C(NCC1CCCO1)c1ccc(COCC(F)(F)C(F)F)cc1 (stereo not given)	-0.1	0.9	7%	-24	3	2.7%[38.3 µM]	0.1%
Cc1cc(N)c(NC2=CC(=O)CC(C)(C)C2)cc1C	60*	?	-27%	?	4	-0.7%	0.1%
COc1ccc(S(=O)(=O)N2CCOCC2)cc1NC(=O)c1cc(C)oc1C	2.1	.	.	-15	18	0.7%	1.2%
Cc1ccc(N(C)C(=O)c2ccc(CNc3c(N4CCC(C)CC4)c(=O)c3=O)cc2)cc1	0.9	4.8	7%	13	1	-0.9%	.
COc1ccc(CNC(=O)COC(=O)c2ccc(Br)c(S(=O)(=O)N3CCOCC3)c2)cc1	0.1	.	.	.	-13	1.8%	4.1%

(cont.)
SMILES	TRPML1 agonist	Menin MLL FP FL	Sfp PPTase inh	TRPV1 potentiator	TRPML1 inh	PINK1 expr mod	ClpP mod
O=C(CCN1C(=O)/C(=C\c2ccc(F)cc2)SC1=S)Nc1ccccc1	0.0	7.0	11%	3	-7	-1.2%	.
CN(C)c1cccc(C(=O)NN2C(=O)NC3(CCCCC3)C2=O)c1	0.0	.	.	5	-7	1.2%	7.2%
COc1ccc(N2CCN(C(CNS(=O)(=O)c3ccc(C)cc3)c3ccccc3)CC2)cc1 (stereo not given)	3.1	.	.	.	1	-4.4%	-3.4%
CCN(C(=O)COC(=O)CNS(=O)(=O)c1ccc2ccccc2c1)C1CCCCC1	2.4	.	.	-11	-15	-3.2%	.
O=S(=O)(c1ccc(Br)cc1)N1CCCC1c1nc2ccccc2s1 (stereo not given)	2.2	2.1	7%	17	33	-1.2%	0.1%
COc1ccc(-n2c(SC)nnc2-c2c[nH]c3ccccc23)cc1	0.7	1.1	4%	16	17	5.5%	-19%
O=C(Nc1c(-c2ccc(Cl)cc2)[nH][nH]c1=O)c1ccccc1Cl	-0.5	.	.	.	.	2.0%	-3.4%
COc1ccc(-c2nc(N)n(C(=O)c3cccs3)n2)cc1	-0.8	-1.3	-1%	4	-8	1.2%	-9.1%
CCCCN(C(C)=O)c1c(CC)nc2ccc(C(=O)NCCOc3ccc(OC)cc3)cn12	-1.0	.	.	.	.	5.7%	-3.7%
CN(CC(=O)Nc1ccc(F)cc1)C(=O)CCc1ccccc1	-0.6	0.1	4%	13	14	4.1%	.
CN(C)N(C)C(=O)C(O)(c1ccccc1)c1ccccc1	-0.6	-0.2	10%	1	22	-1.0%	.
Fc1ccc(CSc2nnc(-c3ccncc3)o2)cc1	0.2	1.2	1%	4	0	-0.2%	.
Cc1ccccc1-c1cc(N(C)C)ncn1	.	-0.2	9%	.	.	-1.0%	.
Cc1ccc(S(=O)(=O)N2CCN(C(=O)c3sccc3C)CC2)cc1	-0.5	.	.	-5	-11	-0.8%	-5.0%

Two of the compounds above, field by field.
CCN(C(=O)COC(=O)CNS(=O)(=O)c1ccc2ccccc2c1)C1CCCCC1
  TRPML1 agonist: 2.4
  Menin MLL FP FL: .
  Sfp PPTase inh: .
  TRPV1 potentiator: -11
  TRPML1 inh: -15
  PINK1 expr mod: -3.2%
  ClpP mod: .
COc1ccc(-n2c(SC)nnc2-c2c[nH]c3ccccc23)cc1
  TRPML1 agonist: 0.7
  Menin MLL FP FL: 1.1
  Sfp PPTase inh: 4%
  TRPV1 potentiator: 16
  TRPML1 inh: 17
  PINK1 expr mod: 5.5%
  ClpP mod: -19%

Screens: PubChem BioAssay, National Center for Advancing Translational Sciences (NCATS)
